RN4220 kill – S. aureus RN4220 growth inhibition; OD600, 16 h; inhibition, % (test concentration not listed); 0.33% of 330,000 active;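 active = z-score of -3 or lower and OD600 up to 0.18 on both plates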;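 also: plate controls were untreated cells for no effect and reference antibiotic for full effect; stock transfer was 100 nL into about 80 µL; one replicate is shown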
BJeLR viability – BJeLR cell viability loss; 0.17% of 300,000 active; inhibition, % (test concentration not listed); BJeLR (HRASV12) viability, CellTiter-Glo ATP luminescence, 48 h; reference of the scale not given here;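 active = replicate mean above 50%; inconclusive = above 50% but judged a plate artefact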;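 also: 50 nL library stock added to about 25 µL; numbers are from one replicate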
Mtb hypoxia rep – inhibitors of hypoxia-regulated fluorescent reporter in Mycobacterium tuberculosis. M. tuberculosis hypoxia-regulated fluorescent reporter, fluorescence. fluorescence inhibition, % (test concentration not listed). 0.1% of 300,000 active;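 active = 35 to 45% if threefold the growth effect, above 45% if 1.5-fold the growth effect; inactive = the rest, general growth blockers included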;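 also: wells of about 50 µL received 100 nL stock; 0% = vehicle wells and 100% = reference inhibitor wells; whole bacteria with a GFP reporter of the hypoxia response; strong numbers were not always called active; many hits fall short of the cut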
ugtP null kill – growth inhibition of S. aureus ugtP deletion strain; S. aureus RN4220 ugtP deletion, OD600 growth, 16 h; some inactives read as strong as hits; 0.54% of 330,000 active; AID 1259309; growth inhibition, % (test concentration not listed);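 active = z-score under -3 and OD600 up to 0.15 on both plates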;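 also: plate controls were untreated wells for no effect and antibiotic for full effect; wells of about 80 µL received 100 nL stock; the first replicate is given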
PrP 5UTR inh – suppresses PrP 5' UTR mRNA reporter expression; cell-based PrP 5' UTR mRNA reporter, plate reader; inhibition, % (concentration not given with the values); 0.35% of 340,000 active;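 active = every replicate at 50% or more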;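 also: 0 = median of the neutral control wells; tested in H4 reporter cells; numbers are from one replicate; inactives centre near -14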
Autofluor counter – counter-screen for toxin protease inhibitors: compound fluorescence. AID 624483. fluorescence intensity (concentration not given with the values). 3.1% of 360,000 active. compound autofluorescence counterscreen, microsphere flow cytometry; active compounds read high;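 active = at least 3 SD above the mean of all compounds, about 16000 in these data; inconclusive = too few beads counted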;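 also: 100 nL of 1 mM stock went into each well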
Mtb hypoxia rep growth – also measured in Mtb hypoxia rep; calls as there; growth inhibition, %; measured here: M. tuberculosis growth (absorbance);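 0% = vehicle and 100% = reference antibiotic; read after six days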
* = called active by the depositor; ? = inconclusive; / = no result given.

Second line of a record – RN4220 kill, BJeLR viability, Mtb hypoxia rep, Mtb hypoxia rep growth, ugtP null kill, PrP 5UTR inh, Autofluor counter
1: CNC(=O)NC(=O)C(C)OC(=O)c1ccc(Cl)c(S(=O)(=O)Nc2ccc(F)cc2)c1 (centres undefined)
  1.9, -2, -2, 4, 19, -3, 3455
2: Clc1ccc(Cc2nnc(-c3ccccc3Br)o2)cc1
  4.8, 9, 13, 17, 2, -14, 4376
3: CC1CCCC(NC(=O)CNCc2ccccc2F)C1C (centres undefined)
  10, -8, 3, 5, 4, -10, 4030
4: N#Cc1ccc(Sc2nc3ccccc3[nH]2)cc1C#N
  -6.9, -9, -2, -7, -3, -19, 8614
5: Cc1ccc(NC(=O)C2OCCc3ccccc32)cc1C (centres undefined)
  2.9, -9, 2, 2, 0, -61, 5221
6: O=C(O)c1cn[nH]c1-c1cccc([N+](=O)[O-])c1
  2.3, 5, 13, 9, 1, -32, 4445
7: COc1ccc(/C=c2\sc3nc(=O)c(C)nn3c2=O)c(OC)c1
  /, 5, /, /, /, -6, 4181
8: Cc1cc(-n2c(SCC(=O)Nc3ccc(F)c(F)c3)nc3n[nH]c(C)c3c2=N)ccc1Cl
  -1.1, 0, -10, 3, -27, 10, 5527
9: O=C(NN=Cc1cc(Br)c(O)c(Br)c1)c1cccc(C(F)(F)F)c1
  -1.4, /, 11, -5, 1, /, /
10: Cc1cccc(C(=O)Nc2ccccc2SCC2CSc3nc4ccccc4c(=O)n32)c1 (centres undefined)
  -2.9, 16, /, /, 11, -20, 5034
11: O=C(c1ccc2oc(CCCc3ccccc3)nc2c1)N1CCCCC1CO (centres undefined)
  2.4, -4, 4, -4, 4, -49, 6711
12: Cc1cc(S(=O)(=O)NCCCN2CCOCC2)ccc1Br
  0.3, /, -1, -7, 3, -12, 5235
13: CCS(=O)(=O)N1CCN(c2ccc([N+](=O)[O-])c(N3CCOCC3)c2)CC1
  6.6, 2, 11, 12, -3, -11, 4528
14: COC(=O)C(c1ccccc1Cl)N1CCc2sccc2C1 (centres undefined)
  6.1, /, 11, 1, 12, /, /
15: O=C(Cn1nnc(-c2ccccc2)n1)NCc1ccc2c(c1)OCO2
  -5.6, 2, /, /, -2, -20, 4663
16: O=C(NC1CC2CCCC(C1)N2C(=S)Nc1ccccc1)C1CC1 (centres undefined)
  0.8, -3, 6, -3, -4, -44, 3422
17: COC(=O)C1=C(C)NC(=O)C1(Nc1nccs1)C(F)(F)F (centres undefined)
  -3.6, 3, /, /, -7, -35, 2896
18: Cc1c(Cl)c([N+](=O)[O-])nn1CCCC(=O)NCCc1ccccc1
  3.3, 11, 5, 7, 8, -37, 4850
19: CN(Cc1ccccc1)C(=NO)c1cccc(Cl)c1
  10, /, 12, 4, 16, /, /
20: CC(C)(C)c1csc(NC(=O)CSC2=NCCS2)n1
  2.5, 4, 5, 2, -7, -9, 4073

3 compounds from above, showing only Mtb hypoxia rep:
item	SMILES	Mtb hypoxia rep
3	CC1CCCC(NC(=O)CNCc2ccccc2F)C1C (centres undefined)	3
4	N#Cc1ccc(Sc2nc3ccccc3[nH]2)cc1C#N	-2
5	Cc1ccc(NC(=O)C2OCCc3ccccc32)cc1C (centres undefined)	2

(cont.)
Second line of a record – RN4220 kill, BJeLR viability, Mtb hypoxia rep, Mtb hypoxia rep growth, ugtP null kill, PrP 5UTR inh, Autofluor counter
21: COc1ccc(C2=NCCc3cc(OC)c(OC)cc32)cc1
  1.4, 8, 5, 4, 4, 3, 2681
22: COc1ccc(C=NOCC(=O)Nc2nc3ccccc3s2)cc1OC
  5.8, /, 12, 0, 5, /, /
23: O=C(NN=Cc1cccc(O)c1)c1ccc(COc2ccccc2Br)cc1
  5.3, /, 0, 7, 5, /, /
24: N/C(=N\OC(=O)COc1ccc2ccccc2c1Br)c1cccnc1
  -1.1, 6, -7, 5, -8, /, /
25: COc1cccc(OC)c1C(=O)Nc1ccc(S(=O)(=O)Nc2cc(C)nc(C)n2)cc1
  1.5, -5, /, /, 4, -6, 4415
26: Cc1cc(N2CCOCC2)nc2ccc(NC(=S)NCCC(C)C)cc12
  1.9, -32, -1, 8, 13, -14, 3479
27: CN1C(=O)C(C)(C)c2cc(S(=O)(=O)N3CCC(C(=O)Nc4ccc(Cl)cc4)CC3)ccc21
  -2.6, 10, 8, 2, 2, 3, 5291
28: CC(=O)NC1=NN(C(C)=O)C(C)(c2ccc(Br)cc2)S1 (centres undefined)
  0.1, 8, 8, 5, 4, -31, 4320
29: COCCN(C(=O)COC(=O)c1cccc2ccccc12)c1c(N)n(Cc2ccccc2)c(=O)[nH]c1=O
  2.7, 6, -5, -3, 10, 1, 4252
30: CN(Cc1ccccc1)C(=O)CCSc1nc(-c2ccc3c(c2)OCO3)cc(C(F)(F)F)n1
  8.0, 10, 14, 5, 23, -25, 3291
31: O=C(c1cnn2c(C(F)(F)F)cc(-c3ccccc3)nc12)N1CCC2(CC1)OCCO2
  7.2, -3, 1, 4, 10, -12, 7548
32: O=C(Nc1cccc(CCc2ccccn2)c1)c1cc(F)c(F)cc1Cl
  -2.7, -3, -5, -4, 1, -6, 3013
33: O=S(=O)(c1ccc(OC(F)(F)F)cc1)N1CCC(O)(c2cccc(C(F)(F)F)c2)CC1
  0.4, 5, 8, 6, -4, -20, 3952
34: NC(=O)C1CCN(C(=O)CCC(=O)c2ccc(F)cc2)CC1
  1.3, 8, 17, 11, 2, 1, 3761
35: CC1(C)C(=O)Nc2ccccc2N1C(=O)CN1C(=O)c2ccccc2C1=O
  -6.1, 2, -6, 2, -7, -2, 10212
36: Cc1ccc(C(=O)CNc2cc(C)ccc2C)cc1
  3.4, 10, 1, 5, 4, 0, 3311
37: Cc1sc(NC(=S)NC(=O)c2ccc(C(C)(C)C)cc2)c(C#N)c1C
  4.3, -7, 9, 7, 0, -4, 21363*
38: Cc1ccc(S(=O)(=O)NCC(=O)N(CCc2ccccc2)CC(=O)NCc2ccco2)cc1
  0.6, -2, /, /, 1, -20, 2648
39: O=C(Nc1ccc(-c2nc3ccccc3[nH]2)cc1)c1ccc(N2C(=O)CCC2=O)cc1
  5.3, 6, 9, 3, -4, -10, 2087
40: CC(=O)Nc1nc(C)c(-c2csc(Nc3cccc(C(C)=O)c3)n2)s1
  4.3, 8, 7, 1, -12, 18, 3330

One compound at a time, as listed above:
`Cc1ccc(S(=O)(=O)NCC(=O)N(CCc2ccccc2)CC(=O)NCc2ccco2)cc1` as listed: RN4220 kill: 0.6; BJeLR viability: -2; Mtb hypoxia rep: /; Mtb hypoxia rep growth: /; ugtP null kill: 1; PrP 5UTR inh: -20; Autofluor counter: 2648
`CN(Cc1ccccc1)C(=O)CCSc1nc(-c2ccc3c(c2)OCO3)cc(C(F)(F)F)n1` as listed: RN4220 kill: 8.0; BJeLR viability: 10; Mtb hypoxia rep: 14; Mtb hypoxia rep growth: 5; ugtP null kill: 23; PrP 5UTR inh: -25; Autofluor counter: 3291
`CC(C)(C)c1csc(NC(=O)CSC2=NCCS2)n1` as listed: RN4220 kill: 2.5; BJeLR viability: 4; Mtb hypoxia rep: 5; Mtb hypoxia rep growth: 2; ugtP null kill: -7; PrP 5UTR inh: -9; Autofluor counter: 4073

Next part:
Second line of a record – RN4220 kill, BJeLR viability, Mtb hypoxia rep, Mtb hypoxia rep growth, ugtP null kill, PrP 5UTR inh, Autofluor counter
41: CCN(CC)CCCNC(=O)Cn1cc2c(n1)CCC(C)C2 (centres undefined)
  1.9, 0, /, /, 0, -18, 5346
42: Cc1cccc(N2CCN(c3ccc(N4C(=O)CCCC4=O)cc3[N+](=O)[O-])CC2C)c1 (centres undefined)
  9.5, -13, 16, 0, 13, -22, 2438
43: Clc1ccc(SCCCCN2CCNCC2)cc1
  /, 3, /, /, /, -34, 2456
44: COc1ccc(CNc2nc3ccccc3n2CCN2CCOCC2)cc1
  -3.9, 3, -6, 4, -1, -21, 4427
45: O=C(NCCOc1ccccc1)c1ccc2n[nH]nc2c1
  -1.3, /, -4, -2, 24, -42, 3935
46: CCNC(=O)c1ccccc1NC(=O)c1cccc(S(=O)(=O)N2CCC(C)CC2)c1
  3.6, 5, 4, 11, 4, -21, 3129
47: CC(=NNC(=O)c1nnn(-c2nonc2N)c1CN(C)c1ccccc1)c1cccnc1
  1.0, /, -1, -8, -6, /, /
48: COc1ccc(Br)cc1C(=O)O
  1.2, -3, /, /, 0, -13, 4015
49: Cc1cc(-n2c(SCC(=O)NCc3cccs3)nc3n[nH]c(C)c3c2=N)ccc1Cl
  7.3, -2, -1, 0, -20, -49, 23384*
50: CCOc1ccc(C2C(C(=O)Nc3ccccc3)=C(C)N=c3sc(=Cc4cccc(OCC(=O)O)c4)c(=O)n32)cc1 (centres undefined)
  9.3, /, 4, 13, 10, /, /
51: Cc1ccc(S(=O)(=O)N2c3ccccc3CC2C)cc1 (centres undefined)
  /, -6, /, /, /, -13, 3971
52: COc1ccc(-n2nnnc2SCC(=O)N2CCCc3ccccc32)cc1OC
  2.3, 0, /, /, -2, -20, 3106
53: COc1cc(SC)ccc1C(=O)Nc1ccon1
  3.0, -13, 6, 1, 1, -80, 8462
54: COc1ccc(S(=O)(=O)N2CCCCCC2)cc1NC(=O)CN(C)Cc1ccc2c(c1)OCO2
  -4.8, /, 7, 2, 3, 0, 3246
55: COCCN(C/C=C/c1ccccc1)C/C=C/c1ccccc1
  4.6, -8, 15, 1, 15, -19, 4116
56: O=C(CSc1nnc(CCc2nc3ccccc3[nH]2)n1-c1ccccc1)NCc1ccccc1
  -15, -1, 9, 11, -2, -14, 2917
57: COc1ccccc1C(=O)Nc1ncc2c(n1)CC(c1ccco1)CC2=O (centres undefined)
  8.1, 0, -10, -10, -4, -20, 7655
58: NS(=O)(=O)c1cc2c(cc1Cl)NC(C1CC3C=CC1C3)NS2(=O)=O (centres undefined)
  6.2, /, 4, -2, -6, -11, 4134
59: C=C1CCC[C@]2(C)C[C@H]3OC(=O)C(CNC(C)CCCC(C)C)[C@H]3CC12 (some centres undefined)
  -6.5, 0, 15, 7, -7, -22, 3273
60: COc1ccc(N(CC(=O)NCCc2ccc(S(N)(=O)=O)cc2)S(=O)(=O)c2c(C)noc2C)cc1
  1.6, -2, -1, 3, 3, -12, 5785

Second line of a record – RN4220 kill, BJeLR viability, Mtb hypoxia rep, Mtb hypoxia rep growth, ugtP null kill, PrP 5UTR inh, Autofluor counter
61: CC1CCCCN1CCCNc1ccc(C(CC(N)=O)NC(=O)Cc2ccc(Cl)cc2)cc1[N+](=O)[O-] (centres undefined)
  3.9, 6, 24, 13, 0, -12, 3726
62: O=C(CN(c1ccccn1)S(=O)(=O)c1ccccc1)Nc1ccccc1
  4.8, 3, 14, 12, 6, -17, 2546
63: Brc1ccc(CSc2ncn[nH]2)cc1
  1.4, 3, 6, 0, 1, -13, 3455
64: CN(C)c1ccc(C(=O)c2ccccc2C(=O)O)c(O)c1
  6.4, 3, /, /, 0, -24, 4147
65: CC(=O)Nc1nc(CC(=O)c2ccccc2)cs1
  1.3, 7, 12, 7, 8, -6, 4170
66: Cc1ccc(S(=O)(=O)N2CCC(C(=O)N[C@@H](C)C(=O)Nc3ccc4c(c3)OCO4)CC2)cc1
  -5.6, 7, -2, -5, -14, 2, 16075
67: Cc1ccccc1NC(=S)NCc1ccc(F)cc1
  -0.1, -2, 1, -5, -3, 0, 3039
68: Cc1ccc(NC2c3ncccc3C(=O)N2Cc2cccs2)cc1C (centres undefined)
  6.3, -6, 0, 4, -4, -68, 2469
69: COc1ccccc1OCC(=O)NCC(C)NC(=O)COc1ccccc1OC (centres undefined)
  -1.6, 10, 0, 10, -4, -46, ?
70: COc1ccc(CNC(=O)C2CCN(S(=O)(=O)c3ccc4c(c3)NC(=O)C(C)S4)CC2)cc1 (centres undefined)
  -0.8, 8, 3, 7, 8, -13, 5812
71: O=C/C(=C\Nc1ccccn1)c1nc2ccccc2o1
  3.9, 4, 5, -5, -6, -11, 17474*
72: CCOC(=O)CNc1cccc(C(F)(F)F)c1
  6.1, 0, 13, 11, 2, -14, 4007
73: COc1ccccc1-c1cc(N)n[nH]1
  4.5, 0, 5, 7, 10, -6, 3020
74: O=C(N/C(=C/c1ccc(Br)cc1)C(=O)N1CCOCC1)c1ccc(Br)o1
  4.3, 1, 4, 3, 2, -6, 5406
75: COc1ccc(/C=N/c2oc(-c3ccccc3)cc2C#N)cc1OC
  /, -8, /, /, /, -13, 2618
76: CSc1ccccc1NC(=O)C1=CC(c2ccc(C)cc2)=NS(=O)(=O)N1C
  19, 5, 4, 4, -13, -8, 5820
